Screening data (PubChem BioAssay)
RecA intein inh: Mtb RecA intein splicing inhibition; P9WHJ3; cell-free RecA intein splicing, fluorescence; inhibition, %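 (about 9 µM by stock and volumes)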; 290,000 tested, 0.75% active; in the data active = inhibition above about 30%; inconclusive = no clear call, values can overlap the other calls;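 also: 0% = vehicle wells and 100% = reference inhibitor control wells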
Target sequence (P9WHJ3 whole entry, looked up): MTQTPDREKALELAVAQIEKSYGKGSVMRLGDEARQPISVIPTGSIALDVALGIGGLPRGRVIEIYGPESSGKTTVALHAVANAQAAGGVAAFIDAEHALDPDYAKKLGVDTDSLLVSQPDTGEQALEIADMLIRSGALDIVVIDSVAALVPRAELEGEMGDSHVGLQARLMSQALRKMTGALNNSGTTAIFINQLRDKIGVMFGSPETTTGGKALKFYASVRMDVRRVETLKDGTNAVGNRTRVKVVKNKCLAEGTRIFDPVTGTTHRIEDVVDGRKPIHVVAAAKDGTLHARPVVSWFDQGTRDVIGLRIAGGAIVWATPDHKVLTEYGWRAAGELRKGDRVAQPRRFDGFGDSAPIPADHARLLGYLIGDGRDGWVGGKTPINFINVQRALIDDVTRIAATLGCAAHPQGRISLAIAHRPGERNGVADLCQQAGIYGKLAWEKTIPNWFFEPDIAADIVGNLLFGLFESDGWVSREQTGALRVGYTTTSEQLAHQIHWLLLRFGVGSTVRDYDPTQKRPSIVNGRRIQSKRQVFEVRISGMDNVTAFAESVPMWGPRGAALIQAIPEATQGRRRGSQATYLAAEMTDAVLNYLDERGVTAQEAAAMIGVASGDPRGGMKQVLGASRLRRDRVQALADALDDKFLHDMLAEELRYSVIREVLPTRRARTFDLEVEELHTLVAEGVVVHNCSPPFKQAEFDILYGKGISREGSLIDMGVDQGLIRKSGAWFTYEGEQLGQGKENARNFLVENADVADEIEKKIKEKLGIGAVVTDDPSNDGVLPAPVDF
Mtb bLac sens: beta-lactam sensitization of Mtb H37Rv; M. tuberculosis H37Rv growth with meropenem, percent inhibition; hits of this screen are not shown here; inhibition, % at 25 µM; 330,000 tested, 0.27% active;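 active = about 74% or more and at least 40 points above the plate without the antibiotic, then above 30% in a dose series; inconclusive = first-round hits that could not be retested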;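 also: growth measured after seven days incubation then overnight dye step; 0% = bacteria only wells and 100% = bacteria with antibiotic; twin plates without the antibiotic show which effects depend on it; some results filed as inactive read as strong as hits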
Mtb growth: M. tuberculosis H37Rv growth inhibitors, H37Rv strain (AID 1626) | M. tuberculosis H37Rv growth inhibition; higher % means a stronger effect | inhibition, % at 10 µM; hits with a dose series show IC50 in µM | 220,000 tested, 0.95% active;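 active = confirmed in a dose series; inconclusive = inhibition above 80% but not taken into the dose series; inactive = below 80% or under 30% at every dose of the series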;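 also: bacteria incubated seven days before Alamar blue readout; 0% = bacteria only wells and 100% = bacteria with antibiotic wells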
Arbovirus inh: blocks arbovirus infection; AID 1251; arbovirus infection cell-based antiviral screen; 200,000 tested, 0.37% active; inhibition, % at 10 µM;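 active = inhibition from about 30%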;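 also: bluetongue infection of BSR cells; cell survival read as ATP light after 72 h; 0% = infected wells without compound and 100% = uninfected wells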
YopH inh: blocks Yersinia enterocolitica YopH tyrosine phosphatase; 140,000 tested, 0.16% active; AID 898; fluorescence Ex485/Em525; inhibition, %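 (about 10 µM by stock and volumes)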;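 active = inhibition of 50% or more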;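 also: controls were vehicle for no effect and minimum signal wells for full effect; inactives centre near -20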
Arbovirus inh repeat: also measured in Arbovirus inh; calls as there; inhibition, %; measured here: 10K subset replicate screen; many hits read low in the repeat;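 first of two repeat runs on a subset; 0% = infected and 100% = uninfected wells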
* = called active by the depositor; ? = inconclusive; / = not tested or not shown.

SMILES | RecA intein inh | Mtb bLac sens | Mtb growth | Arbovirus inh | YopH inh | others
CCN(CC)CCCN(Cc1cc2cc3c(cc2[nH]c1=O)OCCO3)C(=O)Nc1ccccc1 | 0.6 | -9 | 2% | 6 | -2
COc1cccc(CNC(=O)CCC2CCCN(C(=O)c3cccc(Cl)c3)C2)c1 (centres undefined) | 0.9 | -7 | 3% | -1 | /
O=C(N/N=C\c1cn[nH]c1-c1ccccc1)c1cccnc1 | -0.3 | 4 | 5% | -1 | -12
Cc1sc2nc(SCC(=O)NCc3ccco3)n(-c3ccccc3)c(=O)c2c1C | 0.0 | 3 | -7% | 2 | -21
O=C(/C=C/c1ccco1)N(Cc1ccc(Cl)cc1)C1CCS(=O)(=O)C1 (centres undefined) | 2.5 | -5 | 9% | / | /
NC(=O)c1nn(-c2ccccc2)nc1NC(=O)CN1CCCC1 | -2.6 | -4 | -11% | / | /
CCc1cc(=O)oc2c(CN3CCCC3)c(O)c(Cl)cc12 | -81 | -12 | -4% | 2 | -47
CC1=C(C(=O)O)N2C(=O)C(NC(=O)c3nn(C)cc3Cl)C2SC1 (centres undefined) | 0.1 | 8 | -2% | 14 | -36
Cc1cc(NC(=O)C23CCC(C)(C(=O)O2)C3(C)C)no1 (centres undefined) | -1.4 | ? | 3% | 4 | -28
CN1CCN(NC(=O)Nc2ccc(F)cc2)CC1 | 1.6 | -4 | / | / | /
COc1ccccc1N1CCN(C(=O)C(=O)c2cn(CC(=O)N3CCCCCC3)c3ccccc23)CC1 | 0.4 | 8 | / | / | /
CC(C)c1nc(C(N)=O)c2[nH]c(=O)n(-c3ccc(F)cc3)c2n1 | -3.0 | -6 | / | / | /
CCCS(=O)(=O)N1CCCC(C(=O)NCCCN(CC)c2cccc(C)c2)C1 (centres undefined) | -0.3 | -16 | -10% | 4 | -7
S=C(Nc1ccccc1Cl)N(Cc1cccnc1)Cc1ccco1 | -0.1 | -11 | -4% | 13 | /
Cc1ccc(C(=O)OCC(=O)c2ccc(S(=O)(=O)N3CCCCC3)cc2)o1 | 5.2 | -5 | / | / | /
Cc1cc([N+](=O)[O-])ccc1-c1ccc(/C=N/NC(=O)Cc2ccccc2)o1 | -1.1 | 21 | -6% | -10 | -31
COc1ccc(/C(O)=C2/C(=O)C(=O)N(Cc3cccnc3)C2c2ccccn2)cc1 (centres undefined) | -1.2 | -4 | -11% | 8 | -40
O=Cc1cn(CCC(=O)O)nc1-c1cccc(Cl)c1 | / | 10 | -6% | 6 | /
CCn1c(C)nnc1SCC(=O)Nc1cccc(C(F)(F)F)c1 | 1.3 | -2 | / | / | /
C=CCn1c(-c2ccccc2)n[nH]c1=S | -1.0 | 5 | 6% | 0 | -56
CCN1CC(CN(C)Cc2nc(-c3ccc(OC)c4ccccc34)oc2C)CC1=O (centres undefined) | 4.9 | 1 | -7% | -9 | /
Cc1cccc(CSc2nnc(CCCCCNC(=O)OC(C)(C)C)o2)c1 | 5.6 | 93 | 15µM* | / | /
CCOC(=O)N1CCN(C(=O)c2cccn3c(=O)c4cc(Br)ccc4nc23)CC1 | / | -4 | -5% | 3 | /
COc1ccc(/C=N/n2c(-c3ccccc3)n[nH]c2=S)cc1 | 2.8 | -1 | / | / | /
Fc1ccc(-c2nc3c(Cl)cc(C(F)(F)F)cn3c2Cl)cc1 | 0.6 | 0 | -5% | 10 | -16
CC(C)(C)C1CCC(=NOC(=O)c2ccc(F)cc2)CC1 (centres undefined) | 6.8 | 3 | 3% | 12 | /
COc1ccc(C2C(C(=O)OCC(=O)NC(C)(C)C)CCC(=O)N2c2ccc(C)cc2)cc1OC (centres undefined) | 2.0 | 5 | 70% | 2 | -14
O=C(COC(=O)c1c2c(nc3ccccc13)CCCC2)c1cccs1 | 4.8 | 79 | 1% | 10 | -16
O=C1c2ccc3c4c(ccc(c24)C(=O)N1CCCCO)C(=O)N(CCCCO)C3=O | 21 | / | 7µM* | -32 | /
CN1C(=O)c2cccc3c(S(=O)(=O)Nc4ccc(O)c(C(=O)O)c4)ccc1c23 | -4.0 | -1 | / | / | /
CC(C)CC(=O)N1CCC(N2CCN(c3ccccc3)CC2)CC1 | 1.0 | -12 | 69% | 7 | -51
O=C(Nc1ccc(CN2CCCCC2)cc1)c1ccc(Br)o1 | -2.1 | -2 | -5% | -8 | 18
CCCc1nn(C)c2c1C(c1ccncc1)C(C#N)=C(N)O2 (centres undefined) | 64* | -1 | 0% | -2 | -45
COC(=O)Cc1c(O)ccn(CCc2c[nH]c3ccccc23)c1=O | -0.5 | -1 | 5% | 6 | /
Cc1cc(C)c(NC(=O)CN2C(=O)NC3(CCOc4ccccc43)C2=O)c(C)c1 (centres undefined) | 3.5 | 1 | 7% | 12 | 4
CC(NC(=O)CCSCc1ccccc1F)c1ccccc1 (centres undefined) | 3.2 | 3 | / | / | /
O=C(Nc1ccccc1F)c1ccc(CNS(=O)(=O)c2cccc(C(F)(F)F)c2)cc1 | -3.8 | 1 | 6% | 0 | -3
O=C(COC(=O)c1ccccc1Br)NCCC1=CCCCC1 | 3.1 | 60 | 18µM* | 3 | /
COc1ccc(-c2nc(CSCC(=O)NC3CCN(Cc4ccccc4)CC3)c(C)o2)cc1OC | 1.2 | 0 | / | / | /
Cc1ccc(S(=O)(=O)N2CCOCC2)cc1C(=O)NCC1CCCO1 (centres undefined) | 3.1 | ? | / | / | /

Looked up by compound from above (3):
SMILES | RecA intein inh | Mtb bLac sens | Mtb growth | Arbovirus inh | YopH inh | others
COc1ccc(C2C(C(=O)OCC(=O)NC(C)(C)C)CCC(=O)N2c2ccc(C)cc2)cc1OC (centres undefined) | 2.0 | 5 | 70% | 2 | -14
CCN1CC(CN(C)Cc2nc(-c3ccc(OC)c4ccccc34)oc2C)CC1=O (centres undefined) | 4.9 | 1 | -7% | -9 | /
O=C(Nc1ccccc1F)c1ccc(CNS(=O)(=O)c2cccc(C(F)(F)F)c2)cc1 | -3.8 | 1 | 6% | 0 | -3

The listing picks up, starting two compounds before the break.
SMILES | RecA intein inh | Mtb bLac sens | Mtb growth | Arbovirus inh | YopH inh | others
COc1ccc(-c2nc(CSCC(=O)NC3CCN(Cc4ccccc4)CC3)c(C)o2)cc1OC | 1.2 | 0 | / | / | /
Cc1ccc(S(=O)(=O)N2CCOCC2)cc1C(=O)NCC1CCCO1 (centres undefined) | 3.1 | ? | / | / | /
CCN1CCN(c2ccc(S(=O)(=O)N3CCCCC3)cc2NC(=O)COc2ccc(F)cc2Cl)CC1 | 3.4 | 23 | / | / | /
Cc1ccc(C)c(N2CCN(C(=O)CCCCn3c(=O)[nH]c4ccccc4c3=O)CC2)c1 | 8.4 | 94 | 11% | -33 | -3
CSc1cccc(NC(=O)CCCOc2ccc(Cl)cc2Cl)c1 | 10 | 3 | -1% | -2 | -26
Cc1ccc(CNC(=O)c2cnc(-c3ccccn3)nc2C(F)(F)F)cc1 | -0.6 | -10 | -8% | 3 | 3
COc1ccc(S(=O)(=O)N2CC(O)CC2C(=O)Nc2cccnc2)cc1 (centres undefined) | 1.0 | -4 | -5% | / | /
CC(C)(C)c1cc[n+](/C(C(=S)NC2CC2)=C(/[O-])c2ccc(Cl)s2)cc1 | 2.5 | 4 | -1% | 4 | -20
CCS(=O)(=O)N1CCC(C(=O)O)CC1 | 1.2 | 2 | -3% | 3 | /
CCCCc1nc(NCc2ccccc2)c(C#N)c2c1COC(C)(C)C2 | 1.1 | 1 | -1% | -2 | 8
O=S1(=O)CCN(Cc2ccc(F)cc2)CC1 | 1.4 | -5 | -3% | 6 | /
COc1ccc(-c2n[nH]c(C)c2-c2ccc(Cl)cc2)c(O)c1OC | -2.9 | -7 | 3% | -11 | 13
COC(=O)C1=C[C@@H](C(=O)OC)[C@@H]2C3=C(C(=O)[C@@]2(C)NC(=O)c2ccccc2)[C@H](c2ccccc2)[C@@H]2C(=O)NC(=O)[C@@H]2[C@@H]3C1 | -1.7 | -6 | -6% | / | /
COc1cccc(CN(C)C(=O)c2cccc(S(=O)(=O)N3CCN(c4ccc(F)cc4)CC3)c2)c1OC | 8.4 | -11 | / | / | /
CN(CC(=O)O/N=C(\N)c1ccccn1)S(=O)(=O)c1cc(Cl)ccc1Cl | 1.0 | -6 | -2% | -1 | -32
O=C(c1ccccc1)c1c[nH]c2cc3c(cc2c1=O)OCO3 | -1.1 | / | -3% | -3 | 5
CC(=O)c1nc(N2C(=O)CC(Cc3ccc(C)cc3)C2=O)sc1C (centres undefined) | 2.7 | 4 | 1% | -3 | -22
CCOc1ccc(S(=O)(=O)N(C)c2ccc(OCC(=O)NCc3ccc(C(=O)OC)cc3)cc2)cc1 | 0.4 | 63 | 4% | 0 | /
O=S(=O)(NCc1ccc(Cl)cc1)c1cnc[nH]1 | -0.6 | -7 | -3% | 3 | -1
CCN(CC(=O)NC(C)(C)C)C(=O)CN1c2cccc3cccc(c23)S1(=O)=O | -2.7 | -7 | / | / | /
COc1ccccc1CC(NC(C)=O)C(=O)NC1CCN(C(=O)Nc2ccccc2Cl)CC1 (centres undefined) | 1.1 | 5 | -2% | 0 | /
CCOC(=O)c1sc2nc3c(cc2c1N)COC(C(C)C)C3 (centres undefined) | -6.5 | -1 | -2% | 3 | 6
CCOC(=O)Cn1cc(/C=C(/C#N)C(=O)NC(C)C)c2ccccc21 | / | 95 | 44% | 0 | /
COc1ccccc1CNS(=O)(=O)c1ccc2c(c1)N(C(C)=O)CCO2 | 1.3 | 1 | / | / | /
CCOC(=O)c1c(C)nc2sc(C(=O)Nc3ccccc3)c(N)c2c1-c1ccc(OC)cc1 | -149 | 76 | 28% | -11 | -24
N#CNC1=NCN(CCc2ccccc2)CN1 | -3.3 | -9 | -3% | 4 | -49
CCOC(=O)C(NCCOC)(NC(C)=O)C(F)(F)F (centres undefined) | -0.1 | 0 | -13% | / | /
O=C(CCN1C(=O)S/C(=C/c2ccc(F)cc2)C1=O)Nc1ccc(O)c(C(=O)O)c1 | 7.1 | 7 | / | / | /
Cc1ccc(NC(=O)Cn2nnc(-c3ccccc3NC(=O)c3cccs3)n2)cc1 | -0.2 | 91 | 27% | -21 | -2
COc1ccc(N2CCN(CCNC(=O)C3CC(=O)N(C4CCCC4)C3)CC2)cc1 (centres undefined) | -3.2 | 4 | -9% | -1 | 12
Cc1ccc(C)c(NC(=O)C(CC(=O)O)C2CCCO2)c1 (centres undefined) | 0.8 | -1 | / | / | /
O=C1CN(C(=O)c2cc3ccccc3oc2=O)C(c2ccccc2)c2cc(F)ccc2N1 (centres undefined) | 0.9 | 1 | / | -5 | -19
O=C(O)C(Cl)Cl | 8.4 | -5 | -8% | / | /
COc1ccc(C(=O)NCC(=O)NCc2cc(=O)n(C)c(=O)n2C)cc1 | 1.3 | -1 | / | / | /
COCCNC(=O)c1cc2c(=O)n3cccc(C)c3nc2n1C | -4.9 | -5 | -2% | -3 | / | Arbovirus inh repeat=-9
COc1cccc(CN(C)C(=O)c2cc(COc3ccc(-n4cncn4)cc3)on2)c1 | 2.3 | -1 | / | / | /
CC(C)(C)NC(=O)C(c1ccc(O)cc1)N(Cc1ccco1)C(=O)CCC(=O)Nc1ccccn1 (centres undefined) | -0.5 | 3 | / | / | /
COc1ccc(C(=O)N/C(=C/c2cccs2)c2nc3ccccc3[nH]2)cc1OC | 5.1 | 5 | 2% | -7 | -22
Cc1nc(N2CCN(Cc3ccccc3)CC2)nc2c1C(=O)CC(c1ccco1)C2 (centres undefined) | 13 | 13 | 4% | -5 | -28
COc1ccc(OCCSc2nnc(CCNC(=O)c3ccc(Cl)c(Cl)c3)n2C)cc1 | 0.1 | -9 | -3% | -4 | -38
COc1ccc(N2CC(C(=O)Nc3ccc(S(=O)(=O)Nc4nc(C)cc(C)n4)cc3)CC2=O)cc1 (centres undefined) | -1.0 | -3 | -10% | 2 | -48 | Arbovirus inh repeat=7
O=c1cc(CN2CCCc3ccccc32)nc2sccn12 | -62 | 0 | 2% | -9 | /
NS(=O)(=O)c1ccc(NC(=O)COC(=O)COc2cccc(C(F)(F)F)c2)cc1 | / | 0 | -9% | / | /
Cc1cccc(OCCCOc2cccc3cccnc23)c1C | 19 | 54 | 34% | -26 | -41
COc1cc(C(C[N+](=O)[O-])c2c(N)n(C)c(=O)n(C)c2=O)ccc1O (centres undefined) | -3.4 | -1 | 2% | 11 | /
CCOc1ccc(N2C(=O)/C(=C/c3cc(OC)c(OC)c(OC)c3)N(CC(=O)OC)C2=S)cc1 | 1.7 | -9 | -11% | 10 | -8
COc1ccc(-c2cc(C(=O)N(C)Cc3ccccc3)no2)cc1OC | -1.9 | 68 | -5% | -23 | -17
COC(=O)C1=C(C)N(C)C(=O)NC1c1ccsc1 (centres undefined) | 1.5 | -5 | -1% | 4 | /
CNC(=S)N/N=C(\C)c1ccccc1 | 1.3 | 1 | -1% | / | /

Only part of the results is shown; the hit share may differ from the screen's.
